Screening results (PubChem BioAssay)
Glioma ERSR ind: qHTS for Inducers of the Endoplasmic Reticulum Stress Response (ERSR) in Human Glioma: qHTS. actives 0.02% (n = 420,000). U87-MG GRP78 promoter luciferase reporter, 16 h. Potency, µM, without a hit: top-dose activation, most hits filed as activators. AID 602332, 2012; note: potency is the fitted concentration of half-maximal effect; series mostly up to about 76 µM; % of control where 0% means no effect; nearly all actives have a fitted effect of over 35% in size
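ERSR induction read as luciferase luminescence (Bright-Glo, 10 min at room temperature) in stably transfected human U87-MG glioma cells exposed to compounds for 16 h, using GRP78 as sensor.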
BLM helicase inh: qHTS Assay for Inhibitors of Bloom's syndrome helicase (BLM); RecQ-like DNA helicase BLM (Homo sapiens), P54132; recombinant BLM DNA unwinding, fluorescence dequenching; Potency, µM (doses to about 56.1 µM), inactives show at the top dose activity change, negative = inhibition, most hits filed as inhibitors; actives 0.2% (n = 350,000); AID 2528, 2010;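 note: potency is the fitted concentration of half-maximal effect; plate controls were vehicle for no effect and no enzyme for full effect; nearly all actives have a fitted effect of over 35% in size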
LDHA block: qHTS assay for inhibitors of human lactate dehydrogenase; L-lactate dehydrogenase A chain (Homo sapiens), P00338; purified LDHA, NADH/diaphorase-resazurin fluorescence; stronger effect = lower value; activity change, % (values are at about 110 or 230 µM); actives 0.15% (n = 480,000); AID 1347041, 2019; in the data active = activity change below about -30%; inconclusive = mostly about -25% to -30%;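 note: plate controls were DMSO wells for no effect and wells without enzyme for full effect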
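Human LDH5 (2 nM) was incubated with 0.06 mM NADH and 0.2 mM pyruvate for 5 min at room temperature in Tris pH 7.4. Remaining NADH was coupled through diaphorase/resazurin, and resorufin fluorescence was read at 0 and 20 min.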
Apoferritin bind: qHTS Assay for Identification of Novel General Anesthetics. Ferritin light chain (Equus caballus), P02791. apoferritin/1-aminoanthracene competitive binding, fluorescence. Potency, µM (top dose mostly 77.5 µM), without a hit: at the top dose activity change, negative = displacement, hits mostly inhibitors. actives 0.074% (n = 350,000); note: potency is the fitted concentration of half-maximal effect; % is set by controls: 0 for no effect and ±100 for the full control effect; nearly all actives have a fitted effect of over 20% in size
Target sequence (P02791 2-175 limits assumed): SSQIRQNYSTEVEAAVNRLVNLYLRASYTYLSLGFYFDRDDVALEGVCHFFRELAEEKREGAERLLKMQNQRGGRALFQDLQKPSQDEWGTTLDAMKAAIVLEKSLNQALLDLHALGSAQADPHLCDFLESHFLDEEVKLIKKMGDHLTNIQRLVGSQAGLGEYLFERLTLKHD
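Apoferritin-based anesthetic binding model; compound displacement of fluorescent 1-AMA measured as endpoint fluorescence after 10 minutes at room temperature, scaled to free-ligand and complex controls.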
Numbers without * were called inactive; ? = inconclusive; · = no result given; & = joins results of further samples; [ ] = remark or other dose. Unless noted, calls come from the whole dose curve; as a rule, active = well fitted curve in the direction sought with a large enough effect; inconclusive = small, poorly fitted or top-dose-only effect, or another doubt; inactive = no such curve, though single readings can be large; an effect the other way counts as inactive or inconclusive. Some of the compounds tested (hit frequency here may not be typical).

Molecule,Glioma ERSR ind,BLM helicase inh,LDHA block,Apoferritin bind
O=C(Cc1ccc(S(=O)(=O)N2CCOCC2)s1)NCCC(c1ccccc1)c1ccccc1,-4%,-17%,0,-8%
CCn1nc([N+](=O)[O-])c2c(-c3nc4ccccc4o3)c(N)n(CCCOC)c2c1=O,-2%,10µM*,-12,-3%
O=C(CSc1nc(-c2ccc(F)cc2)nc2ccc(F)cc12)Nc1cccc(C(=O)O)c1,-7%,-13%,-3,-5%
Cc1ccccc1NS(=O)(=O)c1ccc2[nH]cc(C(=O)NC3CCCCC3)c(=O)c2c1,-1%,-6%,5,?
O=C(O)c1c2c(nc3ccccc13)/C(=C/c1ccc(O)cc1)CC2,-2%,-9%,0,45%[activator]
CC(=O)OCC1=C(C(=O)O)N2C(=O)[C@@H](NC(=O)Cc3cccs3)[C@H]2SC1,0%&-1%&-2%,45%&-7%[activator],1,1%&-12%
CCOc1cc(/C=C2/NC(=O)NC2=O)cc(Br)c1OCc1ccc(C(=O)O)cc1,-4%,-29%,-7,-3%
O=C(/C=C/c1ccco1)NC(=S)Nc1cccc(C(=O)O)c1,-9%,47%[activator],0,-3%
COc1cc(/C=N/NC(=O)c2cc(O)cc(O)c2)ccc1OC(=O)c1ccccc1,-1%,-21%,-8,-23%
C=CCn1c(Cc2cccs2)nnc1SCC(=O)NCc1ccco1,-4%,-12%,-2,-13%
COc1ccccc1CNC(=O)c1cccc(-c2ccc(C)c3ccccc23)n1,-4%,-11%[75.6 µM],·,-10%[110 µM]
COc1c(N2CCN[C@H](C)C2)c(F)cc2c(=O)c(C(=O)O)cn(C3CC3)c12,-2%,-3%,-8,-5%

Three entries from above, arranged by the value under BLM helicase inh, highest first.
Molecule,Glioma ERSR ind,BLM helicase inh,LDHA block,Apoferritin bind
Cc1ccccc1NS(=O)(=O)c1ccc2[nH]cc(C(=O)NC3CCCCC3)c(=O)c2c1,-1%,-6%,5,?
O=C(CSc1nc(-c2ccc(F)cc2)nc2ccc(F)cc12)Nc1cccc(C(=O)O)c1,-7%,-13%,-3,-5%
CCOc1cc(/C=C2/NC(=O)NC2=O)cc(Br)c1OCc1ccc(C(=O)O)cc1,-4%,-29%,-7,-3%

Among those listed so far, these have an aryl thioether with sulfur outside any ring.
Molecule,Glioma ERSR ind,BLM helicase inh,LDHA block,Apoferritin bind
O=C(CSc1nc(-c2ccc(F)cc2)nc2ccc(F)cc12)Nc1cccc(C(=O)O)c1,-7%,-13%,-3,-5%
C=CCn1c(Cc2cccs2)nnc1SCC(=O)NCc1ccco1,-4%,-12%,-2,-13%

Among those listed so far, two contain a furan ring, fused or not.
Molecule,Glioma ERSR ind,BLM helicase inh,LDHA block,Apoferritin bind
O=C(/C=C/c1ccco1)NC(=S)Nc1cccc(C(=O)O)c1,-9%,47%[activator],0,-3%
C=CCn1c(Cc2cccs2)nnc1SCC(=O)NCc1ccco1,-4%,-12%,-2,-13%
